Screening data from PubChem BioAssay.
NPYLR7 agonist – activates Aedes aegypti NPYLR7 receptor; HEK293T NPYLR7/Galpha15, GCaMP6s calcium fluorescence; activation, % at 10 µM; 270,000 tested, 0.15% active; AID 1259423; in the data active means activation above about 40%;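 further: 0% = vehicle and 100% = reference agonist at the receptor; some compounds past the cut are filed as inactive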
NPYLR7 agonist max-min – recorded beside NPYLR7 agonist, whose call it bears; activation, %; measured here: Max-Min RFU normalised activation; some inactives read as strong as hits;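 span of the calcium signal over five minutes; 0% = vehicle and 100% = native peptide agonist; compound fluorescence can raise it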
Numbers without * were called inactive; & = joins results of further samples. This is a subset; count on the stated rates, not on these rows.

SMILES	NPYLR7 agonist	NPYLR7 agonist max-min
CC(=O)c1ccc(NC(=O)Cn2c3ccccc3c3ncn(Cc4ccccc4)c(=O)c32)cc1	-1	-1
CC(=O)NCCNc1cc(C)nc(-c2ccccc2)n1	-1	11
COc1cc2nc(-c3ccc(N4C(=O)CCC4=O)cc3)oc(=O)c2cc1OC	-7	-12
CC(C)(C)C(=O)N1CCC(C(=O)OCC(=O)NC2(C#N)CCCCC2)CC1	10	3
O=C(NCCC1CCCO1)c1cc(C2CC2)nc2ccccc12 (stereo not drawn)	1	0
COc1cc2ccc(=O)oc2cc1O	-11	-17
CCc1nc(CN(Cc2ccc(N(C)C)cc2)C2CC2)no1	-1	-1
Cc1nn(C2CCS(=O)(=O)C2)c2[nH]c(CCl)cc(=O)c12 (stereo not drawn)	3&3	7&0
CC(C)N1CCC2(CC1)N=C(N)Nc1nc3cc4c(cc3n12)OCCCO4	1	0
CC(=O)NC1C(=O)N(CCOc2cccc3ccccc23)c2ccccc21 (stereo not drawn)	0	0
Cc1cc(NCCN(C)S(C)(=O)=O)nc(-c2cccnc2)n1	-1	-2
O=C(c1cn[nH]c1-c1ccccc1)N1CCc2c(nc[nH]c2=O)C1	0	-10
FC(F)(F)c1ccc(-c2nc3c(OCc4ccccc4)cccn3c2NC2CCCCC2)cc1	6	16
Cc1nnc(SCC(=O)OC2CC(C)CCC2C(C)C)[nH]c1=O (stereo not drawn)	19	12
CC(C)c1noc(C2CCCN2Cc2ncc[nH]2)n1 (stereo not drawn)	25	8

7 compounds picked at random from those above:
SMILES	NPYLR7 agonist	NPYLR7 agonist max-min
CC(C)N1CCC2(CC1)N=C(N)Nc1nc3cc4c(cc3n12)OCCCO4	1	0
CC(C)(C)C(=O)N1CCC(C(=O)OCC(=O)NC2(C#N)CCCCC2)CC1	10	3
COc1cc2ccc(=O)oc2cc1O	-11	-17
CCc1nc(CN(Cc2ccc(N(C)C)cc2)C2CC2)no1	-1	-1
CC(=O)c1ccc(NC(=O)Cn2c3ccccc3c3ncn(Cc4ccccc4)c(=O)c32)cc1	-1	-1
Cc1nnc(SCC(=O)OC2CC(C)CCC2C(C)C)[nH]c1=O (stereo not drawn)	19	12
Cc1cc(NCCN(C)S(C)(=O)=O)nc(-c2cccnc2)n1	-1	-2

Additional records follow.
SMILES	NPYLR7 agonist	NPYLR7 agonist max-min
Nc1cc(C(F)(F)F)ccc1-n1cccc1	16	7
CC(NC(=O)COc1cc(Cl)ccc1C(=O)O)C1CC1 (stereo not drawn)	-1	0
Cc1n[nH]c(C)c1CCC(=O)O	-2	-2
CCCc1[nH]n(-c2cccc(Cl)c2)c(=O)c1C1=C([n+]2cc(C)cc(C)c2)C(=O)N(CCOC)C1=O	-14	-5
COc1cccc(CN2CC(O)CN(C(=O)OCC(C)(C)C)CC2=O)c1OC (stereo not drawn)	-1	11
Cc1cccc(-n2nc3c([n+]2[O-])CCc2nonc2-3)c1C	13	7
O=C(Nc1nc2cc(F)c(F)cc2s1)C1CCCN(c2ncccn2)C1 (stereo not drawn)	-3	-1
COc1ccc(C(=O)N[C@@H]2CCCCC2NC(=O)C2CCCN(C(=O)C(C)(C)CCl)C2)cc1 (stereo partly drawn)	19	16
O=C(c1ccc(Cl)c(Cl)c1)N1CCN(C(c2ccccc2)c2ccc(Br)cc2)CC1 (stereo not drawn)	-2	-7
c1cc2c(c(-n3ccnc3C3CCOC3)c1)CCCC2 (stereo not drawn)	4	-1
CC1(C)CCCC2=C1CC(C(=O)O)C(C(=O)O)C2 (stereo not drawn)	5	6
O=C(NC(c1ccc(Cl)cc1)c1ccsc1)C1CCN(Cc2cccc(C(F)(F)F)c2)CC1 (stereo not drawn)	3	0
CN(CCC(O)c1ccccc1)c1ccc(-c2nccn2C)nn1 (stereo not drawn)	4	4
CC(C)CNC(=O)[C@@]1(OCc2cccc(F)c2)CC(OCc2ccc(C(F)(F)F)cc2)[C@H](O)[C@H](O)C1 (stereo partly drawn)	1	-13
CN(C)c1ccc(NCc2cccc3c2OCCCO3)cn1	8	3
O=C(NC1CC1)c1cc(N2CCCOC(CN3CCCC3)C2)ccn1 (stereo not drawn)	25	15
Cc1ccccc1C1CCCN(C(=O)c2cn(Cc3ccc(F)cc3)nn2)C1 (stereo not drawn)	23	11
COCCn1c(C)c(C)n2c3c(=O)n(Cc4ccc(F)cc4)c(=O)n(C)c3nc12	25	15
Cc1ccc(NC(=O)CCCC(=O)c2cccs2)cc1C(F)(F)F	8	0
Cc1c(C(=O)NCc2ccc(F)cc2)sc(=O)n1Cc1ccccc1F	13	3
CCN1CCN(c2ccc(NC(=O)c3cccc(Cl)c3)cc2)CC1	-8	-9
O=C(O)[C@H]1C[C@@H](O)CCN1C(=O)CCc1cccnc1	-2	-2
CCC(C(=O)N(Cc1cc(NC(=O)COC)ccc1N(C)C)C1CC1)c1ccccc1 (stereo not drawn)	4	14
CCOC(=O)CSc1nnc(NC(=O)c2ccccc2F)s1	-6	10
NC(=O)C1CCCCCC1NC(=O)c1ccncc1Cl (stereo not drawn)	2	0
COc1cc(OC)cc(OC(C)C(=O)NCC(F)(F)F)c1 (stereo not drawn)	1	3
CCOc1nn(CC)cc1-c1nnc(SCC(=O)N2CCCC2)n1C	9	9
Cc1ccc(NCc2nc(C(C)(C)C)no2)c(OCC(F)(F)F)c1	0	0
Cc1nn(C)c(N(C)C)c1CNCc1ccc(N2CCCC2)cc1	-5	-4
Cc1cc2c(=O)n(C)c(SCc3nc4ccccc4[nH]3)nc2s1	-10	-11
COc1ccc(NC(=O)c2c(N)cnn2C)cc1	-3	-6
Cc1cc(C)c(S(=O)(=O)Nc2ccccn2)cc1C	0	-1
CC1CCc2c(sc3nc(CN4CCOCC4)nc(NC4CCCCC4)c23)C1 (stereo not drawn)	-2	-6
CCCCCCn1c(NCc2ccc(C)cc2)nc2c1c(=O)[nH]c(=O)n2C	0	7
C=C(C)COc1ccc(C(=O)N[C@H]2COC[C@@H]2N2CCOCC2)cc1	10	3
COc1ccc(NC2CCCN(C(=O)COc3ccc(C(C)=O)cc3)C2)cc1 (stereo not drawn)	2	-1
O=C(NCc1cccs1)c1cnn2c1NC(c1cccs1)CC2C(F)(F)F (stereo not drawn)	-16	-17
Cc1cccc(C(=O)N2C(C(=O)O)COC23CCN(C(=O)c2ccc(F)cc2F)CC3)c1 (stereo not drawn)	11	9
Cc1ccc(-n2ccnc(SCc3c(F)cccc3Cl)c2=O)cc1	3	4
COc1cccc(C2C(=C(O)c3ccc(C)cc3)C(=O)C(=O)N2CCN2CCOCC2)c1 (stereo not drawn)	13	18
O=C(CNC(=O)Cc1ccc(Cl)cc1)N=Nc1c(O)[nH]c2ccccc12	-3	-8
CC(C)(C)c1cc2nc(C(=O)NC3CCCCNC3=O)cc(-c3cccc(F)c3)n2n1 (stereo not drawn)	2	14
Cc1nc(CN2CCN(Cc3cc4n(n3)CCNC4)CC2)cs1	10	9
CCCCCc1ccc(C(=O)Nc2ccc(N(C)C)c(C(=O)N(CC)CC)c2)cc1	2	15
COc1ccc(Nc2nc(NCCO)nc3[nH]ncc23)cc1	1	1

2 of these compounds, reformatted.
Screens in order – NPYLR7 agonist | NPYLR7 agonist max-min
Cc1cc(C)c(S(=O)(=O)Nc2ccccn2)cc1C
    0 | -1
CCCCCc1ccc(C(=O)Nc2ccc(N(C)C)c(C(=O)N(CC)CC)c2)cc1
    2 | 15

The list continues.
SMILES	NPYLR7 agonist	NPYLR7 agonist max-min
Cc1c(NC(=S)NCc2ccccn2)c(=O)n(-c2ccccc2)n1C	-3	-5
NC1=NC(=O)C(F)(C(F)(F)F)S1 (stereo not drawn)	4	2
COc1ccccc1/C=C/C=C1N=C(/C=C/c2ccc(Cl)cc2)OC/1=O	-6	-9
CCOCCCN1COc2ccc3c(c2C1)O/C(=C\c1ccc(OC)cc1)C3=O	42	37
c1ccc(CN2CCN(C3CCCSc4ccccc43)CC2)cc1 (stereo not drawn)	1	-2
O=C(NCc1ccco1)c1csc(CSc2nnc(-c3ccccc3Cl)n2-c2cccc(Cl)c2)n1	21	19
Cc1cn2c3c(=O)n(Cc4cccc5ccccc45)c(=O)n(C)c3nc2n1Cc1ccco1	2	1
CC1C2=CC(=O)OC2(O)CC2C1C(O)CC1C(C)(CO)CCCC21C (stereo not drawn)	-3	-10
CC(C)C(N)c1nc2ccccc2[nH]1 (stereo not drawn)	-2	-3
Oc1ccccc1N1CCN(C=Nc2nc3ccccc3nc2N2CCOCC2)CC1	-1	-6
O=C1CCN(S(=O)(=O)c2ccc(S(=O)(=O)N3CCOCC3)cc2)C2CCCCC12 (stereo not drawn)	2	-1
COC(=O)COC1C[C@](OCc2cccc(C(F)(F)F)c2)(C(=O)NN2CCOCC2)C[C@H]2OC(C)(C)O[C@@H]12 (stereo partly drawn)	2	12
O=C(CCNS(=O)(=O)c1ccc(Cl)cc1)Nc1ccccn1	4	-2
COC(=O)[C@H](C)NC(=O)c1oc2cc(OC)ccc2c1C	16	11
C=C(Cl)CSc1nc2cc(S(N)(=O)=O)ccc2n1CCC	2	1

In the list so far, 5 have a COOH group.
SMILES	NPYLR7 agonist	NPYLR7 agonist max-min
CC(NC(=O)COc1cc(Cl)ccc1C(=O)O)C1CC1 (stereo not drawn)	-1	0
Cc1n[nH]c(C)c1CCC(=O)O	-2	-2
CC1(C)CCCC2=C1CC(C(=O)O)C(C(=O)O)C2 (stereo not drawn)	5	6
O=C(O)[C@H]1C[C@@H](O)CCN1C(=O)CCc1cccnc1	-2	-2
Cc1cccc(C(=O)N2C(C(=O)O)COC23CCN(C(=O)c2ccc(F)cc2F)CC3)c1 (stereo not drawn)	11	9

Carrying on:
SMILES	NPYLR7 agonist	NPYLR7 agonist max-min
CC(=O)c1sc2nc(CSc3nnc(-c4cccs4)n3C3CC3)[nH]c(=O)c2c1C	8	10
CC1CSc2nc3nc4ccccc4c-3nn21 (stereo not drawn)	-5	-7
COC(=O)C(C(=S)NC(C)=O)=P(c1ccccc1)(c1ccccc1)c1ccccc1	-13	-16
O=C1CCC(=O)N1CC(O)Cn1c2ccc(Cl)cc2c2cc(Cl)ccc21 (stereo not drawn)	3	1
COc1cc(C(=O)C=Cc2cccc(O)c2)ccc1O	0	2
CCn1cc(NC(=O)NC2CC(=O)N(C3CC3)C2)cn1 (stereo not drawn)	0	-1
CCC1CN(CCNS(C)(=O)=O)c2ccccc2O1 (stereo not drawn)	0	-2
Cc1nnc2n1CCN(CC(O)c1ccc(F)cc1)C2 (stereo not drawn)	8	5
COc1ccc(Cn2cc(C(=O)N(C)Cc3ccon3)nn2)cc1	4	0
c1ccc(N2CCN(c3ncnc4sc5c(c34)CCC5)CC2)nc1	12	19
CCOc1ccccc1N1CCN(C(=O)c2cc(-c3ccc(OC)cc3)nc3cc(-c4ccccc4)nn23)CC1	12	8
CNCCOc1ccc(C)cc1-c1ccccc1Cl	3	18
CNC(=O)c1ccc(CN2CC=C(C(C)N(C)C(C)=O)CC2)o1 (stereo not drawn)	7	4
CCOC(=O)C1(CCOc2ccccc2)CCN(Cc2cc(OC)c(O)c(OC)c2)CC1	-7&17	-9&4
COC(=O)CSc1nc2c(cnn2CCO)c(=O)[nH]1	0	0
Cc1ccc(C(O)c2ncc(-c3cccc(C(F)(F)F)c3)[nH]2)c(C)c1 (stereo not drawn)	-9	-12
COc1cccc2sc(NC(=O)CC3CC4CCC3C4)nc12 (stereo not drawn)	-22	-24
O=C(CN1CCNCC1)N1CCCC1	1	3
Cc1ccc[n+](C2=C(c3c(C(C)C)[nH]n(-c4ccc(Cl)c(Cl)c4)c3=O)C(=O)N(CC(C)C)C2=O)c1	4	1
CCOC(=O)CCC(=O)N1CCN(C(=O)CN2CCc3sccc3C2c2cccc(F)c2)CC1C (stereo not drawn)	11	9
C=CCN1C(=O)NC(c2ccc(F)cc2)C(C(=O)OC)=C1C (stereo not drawn)	5	-1
CC(=O)N1CCc2c(sc(NC(=O)CCc3ccccc3)c2-c2nc3ccccc3s2)C1	2	-3
O=C(Nc1nnc(C23CC4CC(CC(C4)C2)C3)s1)c1ccco1	-8	-16
CCc1nc2ccc(C(=O)NCc3ccc4c(c3)OCO4)cn2c1N(CC)CCN(C)C	-6	-9
CC(=O)N1CCCn2nc(C(=O)O)cc2C1	2	1
O=C(COC(=O)COc1cccc(Br)c1)Nc1ccc(F)cc1F	-2	-3
CCc1[nH]c2ccc(CNC(=O)C3Cc4ccccc4O3)cc2c1C (stereo not drawn)	-3	-1
CCC(C)Oc1cccc(-c2nnc(CCC(=O)N(C)Cc3ccccc3)c(=O)[nH]2)c1 (stereo not drawn)	0	-3
CCC(C(=O)N1CCN(C(C(=O)NCc2ccccc2F)C2CCCC2)CC1)c1ccccc1 (stereo not drawn)	-18	-9
FC(F)(F)c1ccccc1CCC1CCCN(Cc2cccnc2)C1 (stereo not drawn)	8	8
O=C(c1cccc(Cl)c1)N1CCc2ccccc2C1c1ccccc1Cl (stereo not drawn)	-3	3
O=C(CNC(=O)c1ccc(F)cc1F)Nc1ncc(Cc2ccc(Cl)cc2)s1	1	19
O=C(c1ccccc1Cl)N1CCN(c2nccc(-c3ccco3)n2)CC1	3	0
O=C(c1cnn(-c2ccc(Cl)cc2)n1)c1cccs1	6	10
COc1cccc(-c2csc3nc(CNCCC(C)C)[nH]c(=O)c23)c1	2	14
O=C(Nc1nnc(C2CCCCC2)s1)c1ccco1	1	1
O=C(Cn1ccc(-c2ccco2)n1)Nc1ccn(Cc2ccccc2)n1	5	2
Cc1cc(C2CCCN2S(=O)(=O)NCc2ccccc2)on1 (stereo not drawn)	6	5
CC1CC(Sc2nnc(CN3CCCCC3)n2-c2ccc(F)cc2)C(=O)O1 (stereo not drawn)	8	7
